PINK1 modulator – modulators of PINK1 expression; PINK1 immunofluorescence, high-content cytometry, 24 h; Potency, µM (titrated, usually from 76.6 µM), inactives show top-dose activation (PINK1 increase), usual class: activators; 410,000 tested, 0.2% active; AID 624263; active = well fitted activation curve with a large enough effect; inconclusive = small, poorly fitted or top-dose-only effect; inactive = flat fitted curve, though single readings scatter; cell line not stated here;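 further: potency means the concentration at half of the fitted maximal effect; % of control where 0% means no effect; nearly all actives have a fitted effect of over 65% in size; a mitochondrial uncoupler was the plate control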
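Decision-based qHTS: stable cells, 24 h exposure to five compound concentrations, CCCP as control. Fixed cells stained for PINK1 plus nuclear, mitochondrial and cell markers, cytometer read.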
Six1-Eya2 inh – blocks human Six1 binding to Eya2. activity change, % (test concentration not listed). 360,000 tested, 0.56% active. AID 651725. AlphaScreen GST-Six1/His-Eya2 binding, biochemical; active compounds read low; control for the full effect not named in the record; in the data active = activity change below about -65%; inconclusive = about -30% to -65%; inactive = above about -30%; further: on the % scale 0 is the no-effect control and ±100 the full control effect
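Compounds are tested against tagged Six1 and Eya2 proteins bridged by glutathione donor and nickel acceptor beads; after a one-hour incubation at 37 °C without light, AlphaScreen emission is recorded.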
Sfp inh – blocks B. subtilis Sfp PPTase activity; 310,000 tested, 3.5% active; Potency, µM, for inactives: max response, negative = inhibition, actives largely listed as inhibitors; Biochemical Sfp PPTase activity, qHTS; Q9F4F7; active means well fitted inhibition curve with a large enough effect; inconclusive means small, poorly fitted or top-dose-only effect, or another doubt; inactive means no such curve, though single readings can be large or run the other way;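 further: the enzyme is Sfp with the accession as filed and its product quenches rhodamine fluorescence; potency means the concentration at half of the fitted maximal effect; 0% = enzyme reaction without inhibitor and -100% = no enzyme wells; top concentration of the series not given in the record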
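With Hepes-Na pH 7.6 buffer containing 10 mM MgCl2, Sfp (15 nM) modified BHQ-2-YbbR (12.5 uM) using rhodamine-CoA (5 uM). Two reads 30 minutes apart at 525/598 nm yielded each well's rate.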
D2 PAM – human D2 receptor positive allosteric modulation; potentiation, % (concentration not given with the values); 360,000 tested, 0.23% active; AID 624464; P14416; DiscoveRx D2 beta-arrestin cells, luminescence, 90 min; 100% = 57 uM dopamine signal; active = potentiation of 50% or more; inconclusive = 30% to 50%; inactive = 30% or less;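 further: compound concentration not given in the record; tested on top of an EC20 dose of dopamine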
Target sequence (P14416 whole entry, looked up): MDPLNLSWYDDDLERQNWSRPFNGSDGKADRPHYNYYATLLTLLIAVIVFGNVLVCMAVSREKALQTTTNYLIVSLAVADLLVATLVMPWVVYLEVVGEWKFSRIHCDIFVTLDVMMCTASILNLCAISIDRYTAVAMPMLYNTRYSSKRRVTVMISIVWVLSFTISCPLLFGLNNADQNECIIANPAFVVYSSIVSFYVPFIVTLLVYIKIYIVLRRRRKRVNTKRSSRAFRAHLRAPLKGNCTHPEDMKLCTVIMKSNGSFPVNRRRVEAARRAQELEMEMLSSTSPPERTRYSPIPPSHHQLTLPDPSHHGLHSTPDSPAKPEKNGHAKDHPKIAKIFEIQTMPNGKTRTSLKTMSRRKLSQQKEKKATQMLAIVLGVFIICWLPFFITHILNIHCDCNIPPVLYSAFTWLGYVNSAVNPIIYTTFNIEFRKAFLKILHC
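PathHunter beta-arrestin assay in DiscoveRx D2 cells. Compounds were added with an EC20 of dopamine (50 nM final) for 90 min at 37 deg C. Luminescence was read 1 h after detection reagent, with 57 uM dopamine as the EC100 control.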
D2 agonist – agonists of human D2 dopamine receptor (beta-arrestin); activation, % (no concentration beside the values); DiscoveRx PathHunter D2 beta-arrestin, luminescence, 90 min; 100% = 57 uM dopamine signal; 360,000 tested, 0.084% active; in the data active = activation above about 40%; inconclusive = about 15% to 40%; inactive = below about 15%; further: compound concentration not given in the record; the text of the record calls up to 30% inactive
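DiscoveRx PathHunter D2 beta-arrestin cells (2,100/well) attached overnight, then compound-stimulated 90 min at 37 C in HBSS/10 mM HEPES/0.1% Tween-20 buffer; beta-galactosidase complementation read by luminescence after 1 h at ambient temperature. Dopamine 57 uM final (EC100) as control.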
TRPV1 potentiator – human TRPV1 potentiation. Q8NER1. TRPV1-expressing cells, Fluo-8 calcium influx, capsaicin EC20 potentiation; host cell line not named in the record; control for the full effect not named in the record. potentiation, % at 8.33 µM. 320,000 tested, 0.02% active. AID 540277; active means potentiation above 80%; inconclusive means 30% to 80%; inactive means below 30%; further: 0% is about no effect
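Cells expressing TRPV1 were dye-loaded with Fluo-8 and read kinetically: 10 s baseline, 3 min after compound (agonist portion), then 2 min after EC20 capsaicin (allosteric enhancer portion). Calcium-bound dye fluorescence at 480/520 nm.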
CtBP-E1A inh – blocks the CtBP interaction with E1A; activity change, % (concentration not given with the values); 340,000 tested, 0.49% active; AlphaScreen GST-E1A/His-CtBP binding, 1536-well; active compounds read low; control for the full effect not named in the record; AID 651724; in the data active means activity change below about -65%; inconclusive means about -30% to -65%; inactive means above about -30%; further: on the % scale 0 is the no-effect control and ±100 the full control effect
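AlphaScreen with 125 nM GST-E1A and 125 nM His-CtBP (5X stocks) in Tris pH 8.0, 300 mM NaCl, BSA, Tween 20, TCEP. Compounds preincubated 2 h at 37 deg C, then glutathione donor/nickel acceptor beads added for 1 h at 37 deg C in dark.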
Active calls of the source: *; ? = inconclusive; . = not tested or not shown; & = joins results of further samples; [ ] = another dose, or the depositor's remark.

SMILES	PINK1 modulator	Six1-Eya2 inh	Sfp inh	D2 PAM	D2 agonist	TRPV1 potentiator	CtBP-E1A inh
COc1ccc(C2/C(=C(\O)c3cc(C)ccc3C)C(=O)C(=O)N2CCN(C)C)cc1OC (stereo unspecified)	2.3%	6.8	-19.2%	-4.1	-1.7	4.7	3.1
C=CCn1c(SC)nnc1-c1cccc([N+](=O)[O-])c1	-1.7%	2.6	6.7%	3.9	-5.8	1.6	3.3
Cn1ccnc1SCC(=O)Nc1ccc2nc(SCC(=O)NC3CC3)sc2c1	0.5%	-4.3	7.7%	-1.7	3.1	20.4	-4.5
CN1CCC(=NNC(=O)C(=O)NC2CCCC2)CC1	-1.5%	2.8	10.7%	-19.1	0.8	8.8	-0.8
CCC(CC)c1ncc[nH]1	1.5%	7.5	8.3%	-2.5	-3.9	7.1	.
Cc1nnc(SCC(=O)N(C)C2CCCCC2)s1	-1.0%	1.0	21.0%	-9.5	-7.1	-2.3	4.0
COc1ccc(N2CCN(C(=O)Cn3nnc(-c4cccs4)n3)CC2)cc1	3.1%[38.3 µM]	-6.7	14.6%	-5.3	-4.1	0.8	2.6
CCN1CCc2c(sc(NC(=O)C3COc4ccccc4O3)c2C(N)=O)C1 (stereo unspecified)	?	-2.2	8.7%	-42.2	-4.6	1.9	6.0
CCN(CC)c1ccc(NC(=O)c2ccc(S(=O)(=O)N3CCOCC3)cc2)cc1	1.6%	-11.9	.	-8.6	-2.8	.	-8.3
CC(C)(C)n1nnnc1C(c1ccc(F)cc1)N(Cc1ccc(F)cc1)Cc1ccco1 (stereo unspecified)	7.7%	1.4	-0.4%	-6.0	5.6	5.3	4.9

In another format: results already given
COc1ccc(C2/C(=C(\O)c3cc(C)ccc3C)C(=O)C(=O)N2CCN(C)C)cc1OC (stereo unspecified)
  PINK1 modulator = 2.3%; Six1-Eya2 inh = 6.8; Sfp inh = -19.2%; D2 PAM = -4.1; D2 agonist = -1.7; TRPV1 potentiator = 4.7; CtBP-E1A inh = 3.1

C=CCn1c(SC)nnc1-c1cccc([N+](=O)[O-])c1
  PINK1 modulator = -1.7%; Six1-Eya2 inh = 2.6; Sfp inh = 6.7%; D2 PAM = 3.9; D2 agonist = -5.8; TRPV1 potentiator = 1.6; CtBP-E1A inh = 3.3

Cn1ccnc1SCC(=O)Nc1ccc2nc(SCC(=O)NC3CC3)sc2c1
  PINK1 modulator = 0.5%; Six1-Eya2 inh = -4.3; Sfp inh = 7.7%; D2 PAM = -1.7; D2 agonist = 3.1; TRPV1 potentiator = 20.4; CtBP-E1A inh = -4.5

CN1CCC(=NNC(=O)C(=O)NC2CCCC2)CC1
  PINK1 modulator = -1.5%; Six1-Eya2 inh = 2.8; Sfp inh = 10.7%; D2 PAM = -19.1; D2 agonist = 0.8; TRPV1 potentiator = 8.8; CtBP-E1A inh = -0.8

The results go on.
SMILES	PINK1 modulator	Six1-Eya2 inh	Sfp inh	D2 PAM	D2 agonist	TRPV1 potentiator	CtBP-E1A inh
Cc1[nH]c2ccccc2c1C(=O)CSc1n[nH]c(N)n1	0.9%	?	15.5%	-2.4	2.5	23.3	-27.8
CC1CCC(C(C)C)C(OCC(O)C[N+]2(C)CCCCC2)C1 (stereo unspecified)	0.8%	6.2	-3.9%	7.0	-1.5	19.6	0.0
CCC(=O)N1CCN(c2ccc(NC(=S)NC(=O)COc3ccccc3)cc2)CC1	-0.3%	-7.4	8.4%	-5.5	0.3	4.9	.
O=c1c2c3nc4ccccc4nc3n(-c3ccc4c(c3)OCCO4)c2ncn1C1CCCC1	2.7%	7.3	6.5%	-2.2	-2.3	?	3.3
COc1ccc(C(=O)N/C(=C\c2cn(S(=O)(=O)N(C)C)c3ccccc23)C(=O)NCCCN2CCOCC2)cc1	0.1%	-3.6	22.2%	-33.6	-2.5	1.2	-0.2
CN(C(=O)c1cc2c(s1)-c1ccccc1S(=O)(=O)C2)c1ccccc1	3.3%	-3.1	-0.2%	-0.7	-1.8	15.9	0.2
COCCN(CC(=O)Nc1ccccc1)S(=O)(=O)c1ccc(S(=O)(=O)N2CCCC2)cc1	13.0%	3.6	10.9%	5.5	-0.2	-11.2	-2.3
O=C(O)CCc1c(C(=O)O)[nH]c2ccccc12	-0.5%	-0.2	-1.6%	-26.8	-0.5	-8.1	2.7
COc1cccc(-c2nnc(NC(=O)c3ccccc3Br)o2)c1	0.7%	-17.2	?	-5.8	-2.9	12.5	-24.1
OCCNc1nc(Nc2ccccc2)nc2ccccc12	0.2%	6.8	-3.0%	-15.0	3.1	5.1	-5.5
Nc1nc(SCC(=O)NCCOCCO)nc2sc3c(c12)CCCC3	-0.4%	-10.7	?	8.3	0.2	-7.8	-1.5
c1ccc(-c2nnnn2CCOCCn2nnnc2-c2ccccc2)cc1	.	-1.4	-1.5%	9.4	-2.7	-11.2	9.4
COc1cccc(CN2CCN(Cc3cc(OC)c(OC)cc3[N+](=O)[O-])CC2)c1	-0.8%[38.3 µM]	-11.9	56.2µM*	-7.4	0.7	?	-18.5
O=C(Nc1ccnn1C1CCN(CCCC2CCCC2)CC1)c1ccccc1Cl	-0.3%	2.5	-4.3%	-21.4	-2.7	-6.0	4.7
CCOC(=O)CSc1ccc(S(=O)(=O)N2CCCC2)cc1[N+](=O)[O-]	1.7%	-5.7	3.3%	3.2	13.3	-4.2	0.0
CCN(CC)c1ccc(S(=O)(=O)Nc2cc(Cl)ccc2Cl)cc1NC(=S)NC(=O)C1CCCC1	?	-20.6	-13.4%	24.3	3.4	?	-2.2
CC1(C(=O)Nc2cccc3c2CCCC3)CCN1C(=O)Cc1ccccc1Cl (stereo unspecified)	1.4%	2.8	.	-6.1	-2.5	.	5.0
O=c1c2ccccc2c(/C=N/c2nnc(Cc3ccccc3)s2)c(O)n1-c1ccc(Cl)cn1	0.2%	4.4	1.1%	4.3	0.1	6.0	3.9
CC(C)c1ccc(COc2ccc(C(=O)N3CCOCC3)cc2)cc1	0.8%	5.4	-21.9%	-4.1	4.4	-19.8	.
CC(=O)c1ccc(NC(=O)C2C3C=CC(O3)C2C(=O)O)cc1 (stereo unspecified)	1.4%	7.6	11.4%	1.2	0.9	8.5	-6.2
CCOC(=O)C1=C(C)NC(=O)NC1c1ccc(OCCO)c(OC)c1 (stereo unspecified)	-0.1%	-0.3	18.8%	-8.0	-1.3	-2.6	4.7
CCOC(=O)c1c(NC(=O)CCN2C(=O)c3cccc([N+](=O)[O-])c3C2=O)sc(C(=O)OC(C)C)c1C	2.3%	7.8	-2.9%	2.7	-0.6	19.0	11.6
CCc1nc2ccc(C(=O)NCCN3CCNC3=O)cn2c1N(C)CCC(C)C	0.2%	0.1	.	-9.6	-4.3	.	-0.3
CCOc1ccc(N(C)S(=O)(=O)c2ccc(C)c(C(=O)NCc3ccccc3OC)c2)cc1	0.0%	0.7	.	-1.4	2.7	-7.7	-4.9
COCC(C)N=C1NN=C(c2c[nH]c3ccccc23)CS1 (stereo unspecified)	-0.7%	11.7	?	0.8	2.5	-6.2	.
Cc1nc(N2CCc3ccccc3C2)[nH]c(=O)c1CCC(C)C	11.2µM*	-0.6	-4.8%	-3.2	-0.8	-6.7	0.0
O=C1c2ccccc2C(c2nnnn2-c2ccc3c(c2)OCCO3)N1CCc1ccccc1F (stereo unspecified)	1.6%	0.8	.	.	.	.	2.1
CCN(CC)c1ccc2cc(S(=O)(=O)c3ccc(C)cc3)c(=O)oc2c1	0.2%	-2.6	2.1%	-2.3	1.5	-7.5	-3.2
COC(=O)c1ccc(NC(=O)NS(=O)(=O)c2ccc(C)cc2)cc1	-0.1%	0.2	19.5%	-7.8	-2.1	8.6	4.8
Cc1ccc2nc(N3CCN(C(=O)CCCC(=O)O)CC3)nc(-c3ccccc3)c2c1	-0.5%	17.0	-2.5%	-5.4	1.5	0.6	.
CN(C)c1cccc(C(=O)N/N=C/c2ccsc2)c1	0.0%	-1.5	-1.6%	-12.2	-1.1	-28.7	-3.5
C(=C\c1ccccc1)/CN1CCN(C(c2nnnn2C2CCCCC2)C2CC2)CC1 (stereo unspecified)	-0.3%	-7.8	.	-11.1	4.9	.	-4.8
O=C(NC1CCCC1)C1CCCN1S(=O)(=O)c1cccc2cccnc12 (stereo unspecified)	4.1%	2.5	14.5%	0.3	-4.9	1.5	0.0
COc1ccc(C(=O)COC(=O)C2COc3ccccc3O2)cc1F (stereo unspecified)	1.0%	5.7	.	-5.9	0.5	.	.
CN(C)c1ccc2nc3c(=O)[nH]c(=O)nc-3n(CC(O)C(O)C(O)CO)c2c1 (stereo unspecified)	3.2%	-19.8	-19.6%	-17.7	-12.0	-13.8	.
CN(C)S(=O)(=O)N1CCC(CO)(CCc2ccccc2)CC1	0.5%	-1.1	-9.5%	-6.1	-1.4	10.8	-6.9
O=C(O)CCCCC1CCSS1 (stereo unspecified)	0.4%	2.0	-25.7%&-10.5%&0.5%&-13.7%	-22.1	-4.8	-7.9	0.3
Nc1c(C(=O)OCC2CCCO2)c2nc3ccccc3nc2n1C1CCCCC1 (stereo unspecified)	?	7.2	16.6%	28.3	8.3	-9.4	7.2
CC(O)(c1cccnc1)c1nc(-c2ccc(F)c(Cl)c2)cs1 (stereo unspecified)	2.0%	1.7	.	-4.2	6.4	.	9.9
CC(CSc1nnnn1-c1ccccc1)Cn1c(N2CCCC2)nc2c1c(=O)[nH]c(=O)n2C (stereo unspecified)	1.3%	11.4	12.5%	-11.5	-3.8	0.4	0.0
CSC1=NCCN1S(=O)(=O)c1ccccc1	1.0%	5.0	11.5%	-3.0	6.9	-19.8	.
CC(C)NC(=O)c1ccc(N(Cc2ccc(Cl)cc2)S(C)(=O)=O)cc1	-0.9%	-14.6	6.7%	-22.3	0.5	-2.4	-0.1
CC(=O)N(Cc1ccccc1)c1ncc2c(n1)c(=O)c(C#N)c1ccccn12	.	?	-7.8%	-4.9	-2.5	-3.8	-12.9
COc1ccc(S(=O)(=O)N(C)C[C@H]2Oc3c(NC(=O)Nc4ccccc4)cccc3C(=O)N([C@H](C)CO)C[C@@H]2C)cc1	-1.5%	-1.1	.	2.2	5.1	.	0.7
Cc1ccc(/C=N/NC(=O)c2ccccn2)s1	0.0%	-19.3	?	-17.2	-3.6	-13.9	9.7
O=C(Nc1cc(Cl)ccc1N1CCOCC1)c1cnccn1	0.0%	0.9	7.5%	-11.1	-4.8	1.9	-0.3
CC(=O)Nc1ccc(S(=O)(=O)Oc2ccc(/C=N/NC(=O)c3ccc(Cl)cc3)cc2)cc1	3.5%	-1.9	25.4%	-23.8	0.8	-9.8	-22.0
CC(CC(=O)N(CCC1=CCCCC1)c1c(N)n(Cc2ccccc2)c(=O)[nH]c1=O)c1ccccc1 (stereo unspecified)	0.1%	9.5	.	-5.8	-5.5	7.1	-9.6
